Source: PubChem BioAssay (Broad Institute)
T cruzi inh – blocks replication of Trypanosoma cruzi. 1.4% of 300,000 active. inhibition, % (concentration not given with the values). T. cruzi beta-gal in NIH3T3, luminescence, 90 h;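 active means mean inhibition across valid replicates above about 55%, limit read from the data; inconclusive means mean below that limit but half or more replicates reach it; inactive means mean below it, under half of replicates reach it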;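 further: signal also drops with host cell toxicity which is not excluded here; 0% = plate median of DMSO wells and 100% = zero luminescence signal; higher percent means less beta-gal luminescence so fewer parasites; stock transfer was 50 nL into about 50 µL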
AF4-AF9 inh – blocks AF4 peptide binding to human AF9 | AlphaScreen, biotin-AF4 peptide binding to FLAG-AF9 | inhibition, % at 10 µM | 0.47% of 350,000 active;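 active means every replicate reaching a set inhibition limit, whatever the replicate mean, cut at about 25% in these data; inconclusive means mean inhibition reaches that limit but some replicates miss it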;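 further: 0% = plate neutral control median and 100% = total signal loss; the record names both 10 and 1 µM as test concentration; the first replicate is given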
Target sequence (P42568 whole entry, looked up): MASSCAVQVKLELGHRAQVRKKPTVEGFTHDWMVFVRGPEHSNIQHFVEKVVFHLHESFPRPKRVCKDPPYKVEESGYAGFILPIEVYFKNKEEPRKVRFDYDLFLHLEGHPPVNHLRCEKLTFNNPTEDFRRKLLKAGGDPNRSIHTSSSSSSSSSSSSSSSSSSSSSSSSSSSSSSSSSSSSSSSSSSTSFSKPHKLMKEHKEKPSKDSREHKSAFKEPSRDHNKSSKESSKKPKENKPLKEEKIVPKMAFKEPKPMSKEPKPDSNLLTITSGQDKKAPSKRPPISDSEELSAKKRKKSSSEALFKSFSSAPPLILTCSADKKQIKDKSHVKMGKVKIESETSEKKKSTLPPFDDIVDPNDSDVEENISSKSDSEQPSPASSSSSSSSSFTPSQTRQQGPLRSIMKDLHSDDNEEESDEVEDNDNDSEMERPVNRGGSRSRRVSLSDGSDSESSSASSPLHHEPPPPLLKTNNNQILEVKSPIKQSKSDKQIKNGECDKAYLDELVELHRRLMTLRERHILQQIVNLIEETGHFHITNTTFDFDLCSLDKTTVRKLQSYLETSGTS
rRNA inh HTS – inhibits bacterial ribosomal RNA function over humanized ribosomes | GFP signal change (wild-type ribosome), % (no concentration beside the values) | 1.6% of 350,000 active | E. coli WT GFP vs humanized-ribosome RFP mutants, fluorescence, 24 h; active compounds read low; DMSO median 0, no signal -100 | AID 720706;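 active means significant combined selectivity score with lowered wild-type GFP, culture density cut under 30%, mutant RFP and density less affected; inactive means any of these conditions unmet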; further: one replicate is shown; some compounds called inactive have numbers as strong as hits
Calb FLC – affects C. albicans growth with fluconazole; C. albicans CaCi-2 (fluconazole-resistant clinical isolate) + fluconazole, Alamar Blue growth, 48 h; growth inhibition, % (test concentration not listed); 0.57% of 300,000 active; AID 1979;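 active means most replicates above 75%; inconclusive means exactly half above 75%; inactive means most below 75%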;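 further: all wells also contain fluconazole at 8 µg/ml as a sub-toxic cotreatment; 0% = median of DMSO wells and 100% = median of geldanamycin control wells; wells of about 8 µL received 7.5 nL stock; the first replicate is given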
RanGTP-Imp inh – inhibitors of RanGTP-importin-beta interaction, primary screen, biochemical, FRET, CFP-Ran, YFP-importin-beta, homogeneous | cell-free CFP-Ran/YFP-importin-beta FRET ratio | inhibition, % (test concentration not listed) | 1.1% of 300,000 active;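 active means most replicates above 15%; inconclusive means exactly half above 15%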;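 further: 0% = DMSO wells and 100% = Ran loaded with GDP instead of GTP; wells of about 40 µL received 100 nL stock; the first replicate is given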
Beta apoptosis – beta cell apoptosis inhibition; protection from apoptosis, % (no concentration beside the values); 0.8% of 300,000 active; INS-1E cytokine-induced death, ATP luminescence, 48 h; percent of positive-control rescue, neutral wells zero;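 active means all replicates at 75% or more, or half of them and the mean; inconclusive means half reach 75% but not the mean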;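 further: 0% = cytokine-treated negative control wells and 100% = positive control rescue; higher means more ATP so stronger rescue from cytokine killing; wells of about 40 µL received 100 nL stock; the first replicate is given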
ALR H2O2 inh – human ALR oxidase inhibition via reduced H2O2; inhibition, % (concentration not given with the values); purified ALR, DTT oxidation, H2O2 HRP-luminol luminescence; 3.8% of 290,000 active;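 active means mean and each replicate at 75% or more; inconclusive means only one of the two met; inactive means neither met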;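 further: stock transfer was 7.5 nL into about 7.5 µL; 0% = neutral wells and 100% = wells with inactivated enzyme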
Target sequence (P55789 whole entry, looked up): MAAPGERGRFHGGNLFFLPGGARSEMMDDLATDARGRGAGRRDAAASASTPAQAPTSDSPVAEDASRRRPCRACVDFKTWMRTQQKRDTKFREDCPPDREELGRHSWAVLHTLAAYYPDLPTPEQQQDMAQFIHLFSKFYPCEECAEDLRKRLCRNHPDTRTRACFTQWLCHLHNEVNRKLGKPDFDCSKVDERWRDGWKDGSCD
FGF22 binding – shifts melting point of recombinant human FGF22. recombinant FGF22 thermal shift, SYPRO orange fluorescence; percent of sucrose octasulfate shift, DMSO zero. calls only at 9.99 µM. 1.5% of 340,000 active;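 active means melting point raised past a set limit in the mean and every replicate; inconclusive means no clear call; three in four hits are not shown here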
Target sequence (Q9HCT0 whole entry, looked up): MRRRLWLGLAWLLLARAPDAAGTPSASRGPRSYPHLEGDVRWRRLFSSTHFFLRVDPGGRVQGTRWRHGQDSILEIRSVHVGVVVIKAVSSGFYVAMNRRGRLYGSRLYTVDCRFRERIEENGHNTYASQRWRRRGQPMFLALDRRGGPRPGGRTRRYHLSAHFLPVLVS
rRNA inh HTS OD600 – also measured in rRNA inh HTS; calls as there; OD600 change, %; measured here: OD600 growth;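 optical density of the mix in the first replicate; 0 = DMSO median and -100 = no signal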
rRNA inh HTS RFP – further read-out of rRNA inh HTS, marked with its call; RFP signal change, %; measured here: RFP humanized mutant strains;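 first replicate; 0 = DMSO median and -100 = no signal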
* marks the source's active call; other numbers are inactive results; i = inactive; u = inconclusive; x = not tested or not shown. An excerpt; the hit share may differ from the screen's.

SMILES	T cruzi inh	AF4-AF9 inh	rRNA inh HTS	rRNA inh HTS OD600	rRNA inh HTS RFP	Calb FLC	RanGTP-Imp inh	Beta apoptosis	ALR H2O2 inh	FGF22 binding
O=C(CCS(=O)(=O)c1ccccc1)Nc1nc(-c2ccccn2)cs1	-108	3.6	-15	-46	-4.3	-4	-3.1	10	-2	i
CC(=O)c1ccc(S(=O)(=O)NCCC(=O)NC2CCN(Cc3ccccc3)CC2)cc1	x	3.9	4	11	-1.8	x	x	-1	-1	i
N#Cc1cccc(NC(=O)Cn2cnc(S(=O)(=O)N3CCCCC3)c2)c1	-6	0.3	5	19	-0.2	-5	-0.6	-10	-1	i
O=C(COc1ccccc1Cl)NNC(=O)C1CCCO1 (stereo not drawn)	-2	x	x	x	x	-1	-1.7	-7	-10	x
Cc1c(/C=C/C(=O)c2ccccc2)cnn1C	-17	x	x	x	x	-2	-2.5	-1	28	x
Cc1[nH]c2ccc(C(=O)NCCCN3CCCCCC3)cc2c1C	-3	6.1	8	10	0.7	-5	-0.9	-4	3	i
CCOc1ccccc1OCCCC(=O)N1CCN(S(=O)(=O)c2ccc(Cl)cc2)CC1	x	13	-11	-14	1.7	x	x	10	-15	i
Cc1ccc(OCC(O)CNS(=O)(=O)c2ccccc2C(=O)O)cc1 (stereo not drawn)	-14	x	x	x	x	3	-0.1	-7	-1	x
COc1ccc(/C=N/NC(=O)c2ccoc2C)cc1OC	10	-4.3	x	x	x	10	u	2	x	i
O=P(c1ccccc1)(c1ccccc1)c1ccc(O)cc1	-9	-1.7	-4	-1	-3.9	8	2.1	-4	-3	i
Cc1cc(C)n(C(=O)N(c2ccccc2)c2ccccc2)n1	-5	-1.7	16	3	9.7	2	-1.0	1	-16	i
COc1cccc(/C=C2\N=C(c3c(-c4ccccc4)noc3C)OC2=O)c1	13	-0.4	7	11	-0.5	-3	-1.3	-5	5	i
Cc1ccc(NC(=O)CN(C)c2ccc(S(=O)(=O)N3CCCC3)cn2)cc1	14	0.8	22	16	0.4	-17	-3.6	-6	x	i
COc1ccc2[nH]cc(CCn3ccc(=O)c(C)c3C)c2c1	-20	0.8	17	14	3.4	3	0.3	-13	2	i
COc1ccc(OC)c(C(=O)COC(=O)COc2ccccc2)c1	x	1.7	7	6	1.8	x	x	-8	-3	i
Cc1ccc(Cl)cc1NC(=O)C1CC(=O)Nc2ncnn21 (stereo not drawn)	-8	-0.6	13	13	-2.2	1	0.2	-4	x	i
Cc1cccc(NC(=O)N2CCCCCC2)c1C	-3	-1.4	2	-2	0.7	-8	2.3	-3	1	i
CCOC(=O)c1nnn(-c2nonc2N)c1CNc1ccccc1	-4	x	x	x	x	-9	-2.9	5	x	x
Cn1c(=O)c2sccc2n2c(CCCC(=O)N3CCCCC3)nnc12	-14	0.0	3	6	-0.1	-9	-1.9	1	3	i
O=C(Cc1ccccc1)NCCc1ccc(Cl)cc1Cl	18	x	x	x	x	-1	1.3	-2	-3	x
COc1ccc(/C=N/NC(=O)c2cc(-c3ccccc3)nc3ccccc23)cc1O	7	-1.3	7	2	-0.6	15	8.8	11	13	i
c1ccc(-n2nnnc2SCc2cccc(CSc3nnnn3-c3ccccc3)n2)cc1	30	x	x	x	x	-5	1.0	5	-3	x
Cc1csc(C(C)N(C)C(=O)c2ccc(OC3CCN(Cc4ccccn4)CC3)cc2)n1 (stereo not drawn)	-4	-3.9	4	4	-6.1	-14	4.1	2	1	i
CCOc1ccc(CCNC(=O)CN(C)S(=O)(=O)c2ccc3c(c2)CCC(=O)N3)cc1OCC	15	x	x	x	x	15	-3.6	0	-3	x
Cc1ccccc1N(CC(=O)NCCSc1ccccn1)S(=O)(=O)c1ccccc1	19	-1.0	-19	-21	-1.1	0	-0.9	0	-8	i

Quoted at random: two records from the list
SMILES	T cruzi inh	AF4-AF9 inh	rRNA inh HTS	rRNA inh HTS OD600	rRNA inh HTS RFP	Calb FLC	RanGTP-Imp inh	Beta apoptosis	ALR H2O2 inh	FGF22 binding
Cc1ccc(NC(=O)CN(C)c2ccc(S(=O)(=O)N3CCCC3)cn2)cc1	14	0.8	22	16	0.4	-17	-3.6	-6	x	i
Cn1c(=O)c2sccc2n2c(CCCC(=O)N3CCCCC3)nnc12	-14	0.0	3	6	-0.1	-9	-1.9	1	3	i

Later entries.
SMILES	T cruzi inh	AF4-AF9 inh	rRNA inh HTS	rRNA inh HTS OD600	rRNA inh HTS RFP	Calb FLC	RanGTP-Imp inh	Beta apoptosis	ALR H2O2 inh	FGF22 binding
Cc1ccc2c(Cl)c(C(=O)Nc3cccnc3)sc2c1	-17	x	x	x	x	10	-1.8	-6	-9	x
COc1cc(/C=N/N2CCCCC2)cc(OC)c1O	9	9.1	-11	5	66	3	0.6	-5	99*	i
CCN(CC)C(=O)C1CCCN(c2ncnc3c2cnn3-c2cccc(C)c2)C1 (stereo not drawn)	4	x	x	x	x	-13	0.9	4	-3	x
C=CCOc1ccc(/C=C/C(=O)OCC(=O)NCc2cccs2)cc1	2	6.8	4	1	-1.8	-11	-0.8	0	-11	i
CCOc1cc(S(=O)(=O)NCCc2ccccc2C)c(OCC)cc1-n1cnnn1	13	x	x	x	x	-1	-2.9	4	-4	x
COC(=O)C(C)N(C#N)c1nc(NC(C)C)nc(SC)n1 (stereo not drawn)	2	x	x	x	x	1	1.3	0	12	x
C/C(CC(=O)Nc1ccccn1)=N\NC(=O)Cc1cccc2ccccc12	0	x	x	x	x	-23	-2.0	-5	3	x
Cc1n[nH]c(C)c1CCN(C)C(=O)C1CCC(=O)N(CC2CCCCC2)C1 (stereo not drawn)	-5	-2.3	6	-2	0.1	5	1.6	x	45	i
O=C(Nc1cc(S(=O)(=O)Nc2ccccc2Cl)ccc1O)c1ccc(F)cc1F	x	-2.2	-6	-4	0.2	x	x	2	8	x
CNc1c(NS(=O)(=O)c2ccc(C(C)(C)C)cc2)c(=O)oc2ccccc12	-1	1.3	5	-1	-5.0	0	-5.7	-15	x	i
O=c1[nH]c(-[n+]2ccccc2)c(/C=N/N=C(\[O-])c2ccccc2)s1	8	11	5	-1	-2.5	1	1.4	-1	x	i
CCOc1ccccc1N1CCN(C(=O)c2cc(S(=O)(=O)N3CCCCC3)ccc2C)CC1	x	2.7	-11	-15	-1.1	x	x	2	5	i
Cc1ccc(NC(=S)N(CCCN2CCCC2)Cc2cccn2Cc2ccc(Cl)cc2)cc1Cl	43	u	-24	-27	17	-5	0.8	7	-16	i
Cc1cc(C)cc(OCC(=O)O/N=C(\N)c2ccccc2Cl)c1	4	-2.3	-1	4	-1.7	-10	1.8	0	-7	i
CCOc1ccc2[nH]c(=O)c(C(c3nnnn3Cc3ccco3)N3CCC(C)CC3)cc2c1 (stereo not drawn)	17	x	x	x	x	13	-4.0	-1	-5	x
Cc1cccc(Cn2c(Sc3nc(C)cs3)nc3c2c(=O)[nH]c(=O)n3C)c1	6	x	x	x	x	7	1.8	0	-5	x
CC(NC(=O)Cn1cc(C(F)(F)F)ccc1=O)c1ccc(F)cc1 (stereo not drawn)	12	-4.0	10	21	3.0	14	-0.6	-2	-3	i
CN(C)c1ccc(/C=C(/NC(=O)c2ccccc2)C(=O)NCCCn2ccnc2)cc1	3	x	x	x	x	1	-5.2	-3	99*	x
COc1ccc(NC(=O)C2CCCN(S(C)(=O)=O)C2)c(OC)c1 (stereo not drawn)	-7	-0.5	9	2	1.9	-1	-2.4	-2	x	i
Cc1cc(=O)[nH]c2sc(C(=O)N3c4ccccc4CC3C)c(N)c12 (stereo not drawn)	x	-2.9	-27	-52	-10	x	x	2	98*	i
COc1ccc(CNCCC(c2ccccc2)C2CCOC(C)(C)C2)cc1 (stereo not drawn)	24	3.5	-13	-9	-1.6	37	-0.5	0	-17	i
CC1CCCN(CCOCCOc2ccc(Br)cc2Cl)C1 (stereo not drawn)	46	x	x	x	x	1	-0.8	2	-3	x
Cc1ccc(C(=O)NCCC(=O)N2CCCC2)cc1	-9	-23	0	10	-3.8	22	-4.0	1	-8	i
CCc1nnc(NC(=O)c2ccc(COc3ccc(C)cc3)o2)s1	-3	x	x	x	x	-3	-8.6	-3	-1	x
CCOC(=O)N1CCN(C(=O)CCCn2c(=S)[nH]c3ccccc3c2=O)CC1	1	x	x	x	x	-5	-2.2	x	60	x
SMILES	T cruzi inh	AF4-AF9 inh	rRNA inh HTS	rRNA inh HTS OD600	rRNA inh HTS RFP	Calb FLC	RanGTP-Imp inh	Beta apoptosis	ALR H2O2 inh	FGF22 binding
COCCn1c(C)nnc1SCC(=O)NNC(=O)c1ccc(Cl)cc1	2	0.9	5	8	0.3	-2	-0.6	-5	-2	i
CCOC(=O)CSc1nc(-c2cccs2)nc2c1c(=O)n(C)c(=O)n2C	-4	-5.5	7	1	-2.4	-2	-1.6	-7	-8	i
Cc1cc(S(=O)(=O)NCc2ccco2)c(C)s1	-18	x	x	x	x	-6	1.4	-6	3	x
COc1ccccc1N(CC(O)Cn1nc(C)cc1C)S(=O)(=O)c1ccccc1 (stereo not drawn)	18	-0.7	13	12	4.2	3	0.4	x	-17	i
Cc1ccc2[nH]c3c(=O)n(CC(=O)NCc4ccco4)ncc3c2c1	-24	-1.3	4	22	-1.4	5	0.6	2	2	i
Cc1ccc(OCC(=O)NCCCNC(=O)c2ccc(C)nc2)cc1	12	0.6	6	19	6.4	2	5.0	-6	x	i
CCOC(=O)N1CCC(N2CC34C=CC(O3)C(C(=O)Nc3ccc(C(C)C)cc3)C4C2=O)CC1 (stereo not drawn)	x	-0.3	-6	-1	-1.4	x	x	-5	-11	i
Nc1nc(SCC(=O)N2CCc3ccccc3C2)[nH]c(=O)c1-c1ccccc1	-5	x	x	x	x	-3	-5.5	1	-2	x
CS(=O)(=O)N(CC(=O)Nc1ccccc1C(=O)N1CCOCC1)c1ccccc1	-3	x	x	x	x	-6	-0.1	0	-4	x
CC1CN(S(=O)(=O)c2cc(C(=O)NC(C)c3cccnc3)ccc2Cl)CC(C)O1 (stereo not drawn)	x	-3.3	10	3	2.3	x	x	-5	-4	i
CC(/C=C/c1ccc2c(c1)OCO2)=N\NC(=O)c1ccccc1	14	-1.8	19	20	4.2	-12	0.1	6	-2	i
CCCc1nnc(NC(=O)c2ccc(S(=O)(=O)N(C)c3ccccc3OC)cc2)s1	x	2.0	-1	-2	-2.1	x	x	-6	x	i
CCC1(C)OC(=O)N2CCc3c(C)[nH]c4c(C)ccc(c34)C21C (stereo not drawn)	13	-0.6	13	-27	-6.5	8	-0.6	4	98*	i
COc1ccc(NS(=O)(=O)c2cccc(-c3nnc(-c4ccccc4)o3)c2)cc1	11	x	x	x	x	3	1.8	7	-9	x
O=C(Oc1cccnc1)c1ccc(Cl)cc1	-8	x	x	x	x	-11	0.4	-4	-9	x
CC1CCCCC1NC(=O)c1cc(S(=O)(=O)N2CCCCC2)ccc1N1CCOCC1 (stereo not drawn)	x	-14	4	6	-1.8	x	x	9	-2	i
O=C(CN(Cc1ccc2c(c1)OCO2)C(=O)CNS(=O)(=O)c1ccccc1)NCC1CCCO1 (stereo not drawn)	-1	x	x	x	x	44	-6.1	-1	-14	x
NC(=O)c1sc(=S)n(-c2ccc(Br)cc2)c1N	-12	-1.2	-31*	-1.0*	-0.1*	1	0.2	-9	95*	i
COc1cccc(-c2nnn(CC(C)=O)n2)c1	-2	x	x	x	x	0	-0.6	-7	2	x
